# Ab BasE inh – blocks the Acinetobacter baumannii siderophore enzyme BasE | purified BasE, fluorescence polarization binding displacement | inhibition, % (test concentration not listed) | 84,000 tested, 0.1% active;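 active means both replicates above 25% with normal brightness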;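 further: 0% = negative plate control signal and 100% = positive plate control signal; stock transfer was 100 nL into about 30 µL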
# LANA-nucl inh – inhibitors of KSHV LANA binding to nucleosomes | FITC-LANA1-23 / chicken nucleosome fluorescence polarization; active compounds read low | z-score (test concentration not listed) | 51,000 tested, 0.3% active;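 active means both repeat wells score below -2 in polarization z-score versus plate sample wells, excluding overly bright wells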;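 further: 100 nL library stock added to about 30 µL; numbers are from one replicate; some results filed as inactive read as strong as hits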
#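 Assay system: FITC-LANA peptide and chicken nucleosomes; input: 240 nM purified chicken nucleosomes (480 nM peptide binding sites), final; also added: 50 nM FITC-LANA1-23 probe; medium: TEN-BT buffer, pH 7.5; doses: pin-transferred compound, 100 nL; times: 10–45 min, room temperature; technique: fluorescence polarization; replication: duplicates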
# An asterisk follows results filed as active; / = no result given.
# Values run as follows: Ab BasE inh, LANA-nucl inh
CCOC(=O)N1CCC2(CC1)C(C(=O)c1ccccc1)C2(C#N)C#N (configuration not stated)
 : 2.6, -0.095
CCS(=O)(=O)c1ccc(O)c(N=Cc2c(O)[nH]c(=S)[nH]c2=O)c1
 : -4.5, /
CN(CC1COc2ccccc2O1)C(=O)c1ccc(Cl)cc1Cl (configuration not stated)
 : 2.4, /
Cc1nc(OCC2CN(Cc3ccccc3)CCO2)c2ccccc2n1 (configuration not stated)
 : -2.6, /
CCN(Cc1cc(Cl)cc(Cl)c1)C(=O)c1cnc(OC)cc1C(F)(F)F
 : -1.5, /
C/C(=N\O)c1ccc(Cl)cc1
 : /, -0.28
CCOC(=O)Cn1cc(S(=O)(=O)N2CCC(C)CC2)c(S(=O)(=O)N2CCC(C)CC2)c1
 : -0.3, /
CCc1ccc(NC(=O)CCn2c(=O)c3cccn3c3cccnc32)cc1
 : 0.3, -0.098
NC(=S)n1[nH]c(-c2ccccc2)c(N=Nc2ccccc2O)c1=O
 : 1.9, -0.053
O=C(N/N=C/c1cc2c(cc1Br)OCO2)c1ccc(CN2CCOCC2)cc1
 : 0.2, -0.83
Cc1cc(N=Cc2c(O)ccc3ccccc23)no1
 : 1.1, 0.25
Cc1nn(-c2ccccc2)nc1C(=O)Oc1c(Cl)cccc1Cl
 : 5.0, /
Cc1ccc2cc(NC(=O)C3CC(=O)N(Cc4ccc(F)cc4)C3)ccc2n1 (configuration not stated)
 : /, -1
C/C(=N/NC(N)=S)C1C(=O)c2ccccc2C1=O
 : 2.6, -0.98
C=CCNCCOc1cccc(CC)c1
 : -0.3, 0.9
C/C(=C/C(=O)O)C(=O)Nc1ccccc1F
 : -0.3, 0.32
NC(N)=NS(=O)(=O)c1ccccc1
 : -1.4, /
Cc1ncc(CO)c(/C=N/NC(N)=S)c1O
 : 1.1, -1.6
Nc1noc2oc3nc(-c4ccncc4)cc(C(F)(F)F)c3c12
 : 2.8, -0.85
Cc1ccccc1CN1CCN(CC(=O)N(C)C2(C#N)CCCCC2)CC1
 : 3.4, /
CC(CC(=O)O)(C(=O)O)c1ccccc1 (configuration not stated)
 : 1.5, -0.087
COC(=O)c1ccc(COC(=O)C2CC(=O)N(Cc3ccco3)C2)cc1 (configuration not stated)
 : 1.9, /
Fc1ccc(-c2ccc(CNCCCSc3ncccn3)o2)cc1Cl
 : -4.9, 0.87
O=C1CN(/N=C/c2ccc(-c3ccc([N+](=O)[O-])cc3)o2)C(=O)N1
 : 0.1, 0.83
O=C(NCc1ccc2c(c1)OCO2)C1CCN(c2ccc(S(=O)(=O)N3CCCC3)cc2)CC1
 : 0.3, -0.59
COc1ccc(C(=O)OCc2cc(=O)n3cc(C)ccc3n2)c(OC)c1OC
 : 2.4, /
COC(=O)c1sccc1S(=O)(=O)N1CCN(C2c3ccccc3-c3ccccc32)CC1
 : 4.5, /
CS(=O)(=O)NCCc1ccc(C(=O)O)s1
 : 1.3, /
CCc1cc2cc3c(cc2nc1SCCN1CCOCC1)OCO3
 : -2.7, 0.63
CC(C)C(=O)N1CCN(c2ccccc2)CC1
 : 1.2, -1.1
Cc1cnc(C(=O)OCCCCN2C(=O)c3ccccc3C2=O)cn1
 : 3.3, /
CN(C)C(C(=O)O)c1ccc(Cl)cc1 (configuration not stated)
 : 3.4, 0.17
CCOc1ccc(NC(=O)Cc2c(C(=O)O)[nH]c3ccccc23)cc1
 : 2.6, -0.81
N#CCCn1c(SCC(=O)c2ccc(Cl)s2)nc2ccccc21
 : -0.9, /
O=C(CNc1ccccc1Cl)N/N=C1\CCCc2ccccc21
 : 2.7, 0.064
CC(=NC1CC1)C1=C(O)c2ccccc2C1=O
 : 0.1, 0.23
O=C(CCCn1c(=O)c2cccn2c2cccnc21)NCCc1ccccc1
 : -4.0, 0.21
COc1ccc(NCc2c(C#N)c(C)nn2-c2ccccc2)cc1
 : 0.9, /
CN1CCN(C(=O)CCCC(=O)O)CC1
 : 1.1, -0.12
CC(=O)Nc1ccc2nc3c(=O)n(C4CCCCC4)c(=O)[nH]c3nc2c1
 : 10, -0.73

# Some of the entries so far, field by field.
O=C(CCCn1c(=O)c2cccn2c2cccnc21)NCCc1ccccc1
  Ab BasE inh: -4.0; LANA-nucl inh: 0.21
CC(=O)Nc1ccc2nc3c(=O)n(C4CCCCC4)c(=O)[nH]c3nc2c1
  Ab BasE inh: 10; LANA-nucl inh: -0.73

# Later entries.
# Values run as follows: Ab BasE inh, LANA-nucl inh
Cc1cc(N2CCN(c3ccccc3F)CC2)n2nc(C)c(-c3ccc(Cl)cc3)c2n1
 : 1.4, -0.59
C=CCN1C(=O)N(CC=C)c2cccc3cccc1c23
 : 0.0, /
O=C(OCCn1ncc2ccccc2c1=O)c1cccs1
 : -1.5, /
CCN1CCN(C(=O)C(c2ccccc2)N2Cc3ccccc3C2=O)CC1 (configuration not stated)
 : -0.4, 0.14
O=C(ON1C(=O)c2ccccc2C1=O)C1CCCCC1
 : 0.9, /
O=C1/C(=C/c2cc3ccccc3o2)CC/C1=C\c1cc2ccccc2o1
 : -4.8, /
CCOC(=O)N1CCC2(CC1)C(C#N)=C(N)SC(N)=C2C#N
 : 1.2, 0.88
COCC(C)n1c(COc2ccccc2F)nnc1SCC(=O)N(C(C)C)C(C)C (configuration not stated)
 : -0.7, /
FC(F)(F)c1cc(-c2nc(=S)[nH][nH]2)cc(C(F)(F)F)c1
 : -1.7, /
COc1nn2nnnc2c2ccccc12
 : 2.3, 0.37
CCOC(=O)C1CCN(Cc2coc3ccc(C)cc3c2=O)CC1
 : 1.8, 1.2
Cc1ccc(N=C2NC(=O)/C(=C\c3ccc4c(c3)n(C)c(=O)n4C)S2)cc1
 : 2.3, /
CC(/C=N/NC(=O)c1cc(-c2ccc3c4c(cccc24)CC3)n[nH]1)=C\c1ccco1
 : 1.3, -0.15
Cc1cc2c3c([nH]c2cc1S(=O)(=O)NCCc1ccco1)CCCC3=O
 : 2.0, 0.35
COc1ccc(NS(=O)(=O)c2ccc3oc(=S)n(CN4CC(C)OC(C)C4)c3c2)cc1 (configuration not stated)
 : 0.5, /
CCC(C)NC(=O)Cc1coc2cc(C)ccc12 (configuration not stated)
 : 0.8, -0.87
O=C(O)Cc1cccc2ccccc12
 : -0.8, 0.88
O=C(O)c1ccc(CN2C(=O)COc3ccccc32)o1
 : 1.4, -0.04
O=C(Sc1nnnn1-c1ccccc1)c1ccccc1Br
 : -2.7, 0.45
Cc1ccc(C)c(S(=O)(=O)NCc2ccccc2)c1
 : 0.6, /

# In the list so far, these contain an aryl methoxy group.
# Values run as follows: Ab BasE inh, LANA-nucl inh
CCN(Cc1cc(Cl)cc(Cl)c1)C(=O)c1cnc(OC)cc1C(F)(F)F
 : -1.5, /
COc1ccc(C(=O)OCc2cc(=O)n3cc(C)ccc3n2)c(OC)c1OC
 : 2.4, /
COc1ccc(NCc2c(C#N)c(C)nn2-c2ccccc2)cc1
 : 0.9, /
COc1nn2nnnc2c2ccccc12
 : 2.3, 0.37
COc1ccc(NS(=O)(=O)c2ccc3oc(=S)n(CN4CC(C)OC(C)C4)c3c2)cc1 (configuration not stated)
 : 0.5, /

# (continued)
# Values run as follows: Ab BasE inh, LANA-nucl inh
Cc1[nH]nc(Nc2ccccc2)c1N=Nc1ccc(Br)cc1
 : 0.3, /
O=C(CSc1nc(=O)n2ccccc2n1)OCc1ccccc1
 : 0.5, -0.26
COC(=O)c1ccc(COc2ccc3c(-c4ccccc4)cc(=O)oc3c2C)o1
 : -0.4, /
COc1cccc(Nc2ncnc3nc[nH]c23)c1
 : -1.2, 1.4
COc1ccc(C(C#N)N2CCN(C(C#N)c3ccc(OC)c(OC)c3)CC2)cc1OC (configuration not stated)
 : 0.1, 0.066
Cc1sc(NC(=O)CSc2ccccc2)c(C#N)c1C
 : 1.2, 1.3
CN(C)C(=O)Cn1c(Cl)nc2ccccc21
 : 0.3, 0.098
Cc1cccc(NNC(=O)CCc2ccccc2)c1
 : 1.8, 0.5
CC1(C)COC(c2sccc2C(=O)N(C(=O)NC2CCCCC2)C2CCCCC2)=N1
 : 0.8, /
COc1cccc(C(C)NC(=O)c2ccccc2OC)c1 (configuration not stated)
 : 3.6, -0.73
COC(=O)c1[nH]c(CN2C(=O)c3ccccc3S2(=O)=O)c(C(=O)OC)c1C
 : 0.0, /
CC(=O)Nc1ccc(C#N)c(OC(F)F)c1
 : 2.8, /
CC(=O)N1CCN(CCN=CC2=C(O)CC(c3ccco3)CC2=O)CC1 (configuration not stated)
 : -0.9, 1.6
COc1ccc(CNC(=O)C2COc3ccccc3O2)cc1 (configuration not stated)
 : 3.0, -0.11
CSc1nc(C23CC4CC(CC(C4)C2)C3)ccc1C#N
 : 1.9, -1
c1cc2c(cc1C1CC1)OCCO2
 : -2.7, 0.13
O=C(CCCn1c(=O)c2cccn2c2ccccc21)NC1CCCCC1
 : 0.8, 0.77
Cc1ccc(CN2CC(C(=O)N3CCCc4ccccc43)CC2=O)cc1 (configuration not stated)
 : -0.6, /
O=C(O)c1cc(S(=O)(=O)NNc2ccc(Cl)cc2)ccc1O
 : 0.5, /
Cc1ccc(/C=[N+](\[O-])c2ccccc2C)o1
 : 1.6, -0.52
CC1(C(=O)NC2CCCC2)CCC(=O)N1Cc1cccnc1 (configuration not stated)
 : 2.2, 0.44
C=CCN(Cc1nc(-c2ccccc2)no1)C(=O)COc1ccccc1
 : 3.6, -0.43
C=CCn1c(=O)/c(=C/c2ccc(-c3ccc(Br)cc3)o2)s/c1=C(/C#N)c1nnc2n1CCCCC2
 : 22, /
O=C1CSC(=O)N1Cc1cc2c(cc1Cl)OCO2
 : -0.7, 0.53
COc1ccc(OCC#CCOc2ccccc2)cc1
 : -0.8, 0.74
O=C1CCC2(C(=O)NC34CC5CC(CC(C5)C3)C4)SCCN12 (configuration not stated)
 : 2.0, /
Cc1ccc(C=Nc2ccccc2C(N)=O)s1
 : -1.7, 1.2
O=S(=O)(NC1CCCCC1N1CCC(O)CC1)c1ccc(Cl)cc1 (configuration not stated)
 : 0.1, -0.39
COc1cccc(NC(=S)N=Nc2c(O)n(C)c3ccc(S(=O)(=O)N4CCOCC4)cc23)c1
 : 4.0, -0.092
Cc1ccc(C)c(S(=O)(=O)N2CCCN(C)CC2)c1
 : -0.4, /
CC(C)C(NC(=O)/C=C/c1ccc(Br)o1)c1ccc2c(c1)OCCCO2 (configuration not stated)
 : 0.4, /
Cc1ccc(Nc2nnc(SC(C)C(N)=O)s2)cc1 (configuration not stated)
 : -2.0, /
O=C(C1c2ccccc2Oc2ccccc21)N1CCCCC1
 : -0.3, -1.3
O=C(O)CC1NC(=O)NC1=O (configuration not stated)
 : -0.8, 0.013
O=C(Nc1ccc(Cl)cc1Cl)c1cc2nc3c(c(C(F)(F)F)n2n1)CCc1ccccc1-3
 : 3.1, /
CCCCC/C=C\C/C=C\C/C=C\CC1OC1CCCC(=O)O (configuration not stated)
 : -1.4, -0.32
CCSc1nnc2c(n1)OC(c1cc3c(cc1Cl)OCO3)Nc1ccccc1-2 (configuration not stated)
 : 0.3, /
Cc1nc(N2CCN(C)CC2)sc1C(=O)N(C)C
 : 0.2, /
O=C(NCCCN1CCN(c2ccccc2F)CC1)C1CCN(S(=O)(=O)c2cccc3cccnc23)CC1
 : -1.0, -0.48
O=C(Nc1ccccn1)C1(c2ccccc2)CCCC1
 : -0.8, 0.29
CC(C)CN1C(=O)/C(=C\c2ccc(-c3ccc(S(N)(=O)=O)cc3)o2)SC1=S
 : -9.9, /
Cc1ccc(C)n1-c1ccc(C(=O)NCc2cccnc2)cc1
 : 0.8, /
CCOn1c(=O)c(-c2ccccc2)[n+]([O-])c2ccccc21
 : 2.2, 0.36
COc1ccc(NC(=O)c2ccc3cccc(O)c3n2)cc1Cl
 : -0.2, 0.29
c1ccc2c(c1)Oc1ccccc1C2N1CCOCC1
 : 1.7, 0.33
CN(C)C1(CNC(=O)c2cccc(NS(=O)(=O)c3ccc4c(c3)OCCO4)c2)CCCCC1
 : -0.3, /
O=C(c1ccc2c(c1)OCO2)c1cn(Cc2ccc(F)cc2)c2cc3c(cc2c1=O)OCO3
 : -1.7, -1
NC(=O)C1CCCN(C(=O)CCC(=O)c2cccs2)C1 (configuration not stated)
 : -0.7, /
Cc1c(Cl)c(=O)oc2cc(OCC(=O)N3CCCC(C)C3)ccc12 (configuration not stated)
 : -1.1, /
Cc1ccc(CN(C)c2ccc(S(=O)(=O)N3CCCC3)cn2)cc1
 : 0.6, /

# Additional records follow.
# Values run as follows: Ab BasE inh, LANA-nucl inh
Cc1ccc(NC(=O)CC2SC(=Nc3ccc(S(N)(=O)=O)cc3)NC2=O)cc1 (configuration not stated)
 : -13, 2.7
O=C1NC2(CCCCC2)Oc2ccccc21
 : -0.5, 2.6
Cc1ccc(-c2n[nH]c(CNC(=O)c3ccc(F)c(F)c3)n2)cc1
 : -2.4, 0.42
O=c1[nH]c2ccccc2nc1C(F)(F)F
 : /, 0.1
CC(C)(C)NC(=O)N1CCC(Nc2nccc(C(F)(F)F)n2)CC1
 : -0.2, /
CCNS(=O)(=O)c1ccc(NC(=O)c2ccccc2OCC)cc1
 : 2.5, -0.31
Cc1ccc(NC(=O)N2CCCn3c(SCC(=O)c4ccccc4)nnc32)cc1
 : 0.9, 0.11
CC(C)C(NS(=O)(=O)c1ccc2c(c1)oc(=O)n2C)C(=O)N1CCN(c2ccc(Cl)cc2)CC1 (configuration not stated)
 : 2.6, -1.3
CC(C)CCNC(=O)C1CCN(S(=O)(=O)c2ccc3nc4c(c(C(=O)O)c3c2)CCCCC4)CC1
 : -1.3, -0.41
COc1ccc(-c2ccc3c(N)c(C(=O)Nc4cccc(C(F)(F)F)c4)sc3n2)cc1OC
 : -0.3, /

# Screens as filed in PubChem BioAssay.

# This is a subset, so the mix of outcomes need not match the whole.
